Source: PubChem BioAssay (SRMLSC)
H5N1 CPE: MDCK cell protection from H5N1 avian flu; cytopathic effect, luminescence, 72 h; active compounds read high; no value below 0 was filed and about half of the inactive calls have no number; reference of the scale not given here; inhibition, % at 50 µM; 0.07% of 96,000 active; AID 740; in the data active means inhibition above about 25%
* hit, by the source's call; i = inactive.

SMILES | H5N1 CPE
CCOC(=O)C1CCN(C(=O)CCn2c(=O)[nH]c3ccsc3c2=O)CC1 | 1.1
CC(C)NC(=O)CN(C(=O)CCC(=O)Nc1ccccn1)c1ccc(F)c(Cl)c1 | i
O=C(Nc1nc(-c2ccccn2)cs1)c1ccc(Br)s1 | 0.6
O=c1[nH]c(N2CCc3ccccc32)nc2c1CCCC2 | i
Cc1nc(C)c(C(=O)C2=C(O)C(=O)N(CCN3CCOCC3)C2c2ccco2)s1 (configuration not stated) | 0.7
Cc1ccc(N(CC(O)CON=C2c3ccccc3-c3ccccc32)S(C)(=O)=O)cc1 (configuration not stated) | 8.2
Cc1ccccc1-c1nc(CS(=O)CC(=O)N2CCC3(CC2)OCCO3)c(C)o1 (configuration not stated) | 0.9
Cc1cccc(NC(=O)COc2nsnc2N2CCOCC2)c1 | i
CCCCC(=O)C1CCN(Cc2ccccc2)CC1 | i
O=C(Nc1ccc2c(c1)CCC2)c1cccc(S(=O)(=O)N2CCN(c3ccccc3)CC2)c1 | 1.7
Cc1ccc(C(=O)CSC2=C(C#N)C(c3ccco3)C3=C(CC(C)(C)CC3=O)N2)cc1 (configuration not stated) | 1.6
Cn1c(N)c(C(=O)NCc2ccccc2Cl)sc1=S | i
CCOC(=O)C1(Cc2ccc(O)cc2)NC(c2ccco2)C2C(=O)N(c3ccccc3F)C(=O)C21 (configuration not stated) | i
OC1(c2cccc(C(F)(F)F)c2)CCN(c2ncnc3c2[nH]c2ccc(F)cc23)CC1 | i
CCNc1nc(NC(C)C)nc(N(C#N)Cc2ccccc2)n1 | 0.8
C/C(=N\OC(=O)c1cccc(Cl)c1)c1sc(C)nc1C | 3.8
Cc1ccc(C)c(S(=O)(=O)N2CCN(CC(=O)Nc3ccc4c(c3)OCCO4)CC2)c1 | i
CCOC(=O)CNC(=O)C(CO)NC(=O)OCc1ccccc1 (configuration not stated) | 0.3
CCCN(CCC)CCCNc1ccc2nnc(-c3ccc(F)cc3)n2n1 | i
Cc1ccc(NC(=O)CSc2nnc(C3CCCCC3)n2N)cc1F | i
CCOc1ccc2nc(NC(=O)Cc3cccs3)sc2c1 | 0.4
Cc1ccc(NC(=O)C2CCCN(S(=O)(=O)c3cnc[nH]3)C2)cc1C (configuration not stated) | 3.4
COc1ccc(C(c2sc3nc(C)nn3c2O)N2CCN(CCO)CC2)cc1OC (configuration not stated) | 0.6
COc1ccc(N(C(=O)c2ccco2)S(=O)(=O)c2cc(Cl)c(Cl)cc2Cl)cc1 | i
O=S(=O)(Nc1cccnc1)c1cccc(Cl)c1 | i
COc1ccc(CN2CC(C(=O)NCCCN3CCOCC3)CC2=O)cc1 (configuration not stated) | i
COc1ccc(C(=O)NC(C)(C)C)cc1S(=O)(=O)N1CCCC1 | 1.4
Cc1cc(O)c(C(C)C)cc1NC1=NS(=O)(=O)c2ccccc21 | 0.9
CC1CN(S(=O)(=O)c2ccc(C(=O)Nc3nnc(-c4ccc5c(c4)CCCC5)o3)cc2)CC(C)O1 (configuration not stated) | 6.5
O=C(c1ccc(=O)oc1)N1CCOCC1 | 1.1
CCNC(=O)CCC(=O)Nc1cc(Cl)ccc1C | 0.1
Cc1ccc(CNC(=O)C23CN(Cc4ccccc4)CC2C(c2cccc([N+](=O)[O-])c2)=NO3)cc1 (configuration not stated) | i
Cc1ccc(C(=O)C2=C(O)C(=O)N(CCN3CCOCC3)C2c2ccccn2)o1 (configuration not stated) | 0.7
C=CCNC(=O)c1onc(CSc2ccc(C(C)C)cc2)c1C(=O)O | i
CSc1nsc(SCc2ccc(F)cc2)n1 | 0.5
Nc1cc(=O)[nH]c(SCC(=O)Nc2ccc(Cl)c(Cl)c2)n1 | i
O=C1COc2ccc(OCc3ccc(F)cc3)cc21 | 1.8
CC(C)(CNC(=O)c1cccs1)CNC(=O)c1cccs1 | 6.6
CC(C)C(=O)N(Cc1cc2ccccc2[nH]c1=O)C(C)C | i
CC12COC3(C(=O)Nc4cccnc4)CC1CCC32C (configuration not stated) | 0.9
O=C(O)CNC1=NCCCCC1 | i
COc1ccc(C(c2nnnn2Cc2cccs2)N2CCN(c3ccc(F)cc3)CC2)cc1OC (configuration not stated) | 0.6
O=C(CCCN1C(=O)c2ccccc2C1=O)Nc1c(C(=O)C2CC2)oc2ccccc12 | 0.5
O=C(CCCn1c(=O)c2sccc2n(CC(=O)NCc2ccco2)c1=O)NCc1ccco1 | 0.0
NC(=O)c1sc2cc(C(F)(F)F)cnc2c1-c1cccs1 | 0.8
CC1CCCCC12NC(=O)N(CC(=O)NCCc1ccccn1)C2=O (configuration not stated) | i
NC1=NS(=O)(=O)NC1c1cccc(Cl)c1 (configuration not stated) | i
O=C(Nc1ccc2nn(-c3ccccc3)nc2c1)c1ccc2c(c1)OCCO2 | 0.4
Cc1ccc2c(c1)nnn2C1CCN(C(=O)C2CCCCC2)CC1 | i
N#CC1=C(N)Oc2cc(N)ccc2C1C1CC=CCC1 (configuration not stated) | i
CN1CCN(c2nc(N(C)C)oc(=O)c2C#N)CC1 | 0.3
O=C1C2CCCCN2C(=O)N1CCN1CCN(c2ccc([N+](=O)[O-])cc2)CC1 (configuration not stated) | 2.9
COc1ccc(C2C3=C(Nc4ncnn42)c2ccccc2CC3)cc1OC (configuration not stated) | i
O=C(CN1CCc2ccccc2C1)c1cccs1 | i
COc1cccc(NC(=O)CCNC(=O)Cn2ccc3ccccc3c2=O)c1 | 0.2
N#Cc1cc2c(nc1SCc1nc3ccccc3[nH]1)CCC2 | i
CC(=O)Nc1ccc2nc(-c3ccccn3)[nH]c2c1 | 1.0
O=c1cc(CN2CCC3(CC2)OCCO3)c2c(ccc3ccccc32)o1 | 0.7
ON1C2CCCCC2N(O)C1c1ccccc1F (configuration not stated) | i
CSc1nc2ccc(S(=O)(=O)N(C)C)cc2s1 | i
Additional structures follow.
SMILES | H5N1 CPE
O=C(Nc1cc(F)ccc1F)C1CCCO1 (configuration not stated) | 0.1
Cc1cccc(-c2nnc(-c3cccc(NC(=O)Cc4cccs4)c3)o2)c1 | i
O=C(O)CC1Oc2ccc(Cl)cc2NC1=O (configuration not stated) | 0.2
CCOc1cc(C(=O)NCCOC)ccc1OC | 0.5
CCOC(=O)N1CCN(C(=O)C(C)n2nc(C)n3c(cc4sccc43)c2=O)CC1 (configuration not stated) | 1.0
CCOC(=O)C(NC(C)=O)(Nc1ccc(F)cc1)C(F)(F)F (configuration not stated) | i
c1ccc2c(c1)OCC(c1nnc3sc(-c4cnccn4)nn13)O2 (configuration not stated) | 1.9
CC1Oc2ccccc2N(CC(=O)N(Cc2ccccc2)Cc2ccccn2)C1=O (configuration not stated) | 1.4
Cc1ccc(S/C(=N\S(=O)(=O)c2ccc(Cl)cc2)c2ccccc2)cc1 | i
CCc1c(C)c(C#N)c2nc3ccccc3n2c1N(C)C | i
CCCCCSc1nncc(=O)[nH]1 | 0.3
O=C(O)c1ccccc1S(=O)(=O)NCC(O)COC1CCCCC1 (configuration not stated) | i

Of the compounds above, 8 contain two or more sulfur atoms.
SMILES | H5N1 CPE
O=C(Nc1nc(-c2ccccn2)cs1)c1ccc(Br)s1 | 0.6
Cn1c(N)c(C(=O)NCc2ccccc2Cl)sc1=S | i
CCOc1ccc2nc(NC(=O)Cc3cccs3)sc2c1 | 0.4
CSc1nsc(SCc2ccc(F)cc2)n1 | 0.5
CC(C)(CNC(=O)c1cccs1)CNC(=O)c1cccs1 | 6.6
NC(=O)c1sc2cc(C(F)(F)F)cnc2c1-c1cccs1 | 0.8
CSc1nc2ccc(S(=O)(=O)N(C)C)cc2s1 | i
Cc1ccc(S/C(=N\S(=O)(=O)c2ccc(Cl)cc2)c2ccccc2)cc1 | i

Next part:
SMILES | H5N1 CPE
COc1cccc(C2=CC(c3cccc(OC)c3OC)n3nnnc3N2)c1 (configuration not stated) | 1.0
Cn1c(=O)c2c(-c3ccc(C(C)(C)C)cc3)n(CC3CCCO3)cc2n(C)c1=O (configuration not stated) | 0.8
CCC(C(=O)NCc1ccco1)N(C(=O)CNS(=O)(=O)c1ccc(C)cc1)c1ccccc1OC (configuration not stated) | i
CC(=O)N1CCc2cc(S(=O)(=O)NCCC(=O)Nc3cc(C)cc(C)c3)ccc21 | i
COC(=O)N(C)CCCC1(C)C(=O)N(C)c2ccc(O)cc21 (configuration not stated) | i
O=C(N1CCOCC1)C(F)(F)C(F)(F)C(F)(F)C(F)(F)C(=O)N1CCOCC1 | 0.1
Cc1cc(C(=O)N2CCC3(CC2)OCCO3)cs1 | i
COCCCn1c(SCC(=O)N2CCCCC2C)nnc1-c1ccco1 (configuration not stated) | i
Cc1cccc(C)c1OCc1nnc(SCC(=O)Nc2ccccc2F)o1 | 0.4
CCN1CNC(=S)N(c2cc(C)ccc2C)C1 | i
NC(=O)C1CCN(C(=O)N2c3ccccc3Sc3ccccc32)CC1 | 3.4
CCC(C)(C)n1nnnc1CN1CCc2ccccc21 | 0.7
CN(C)S(=O)(=O)c1cccc(NC(=S)Nc2ccc(Cl)cc2Cl)c1 | i
CCc1ccccc1NC(=O)C1CC(c2ccc(F)cc2)=NO1 (configuration not stated) | 0.6
COc1ccccc1/C=C/C(=O)NC(=S)Nc1ccc(S(=O)(=O)N(C)c2ccccc2)cc1 | 1.4
CCc1ccc(C2=NN(S(C)(=O)=O)C(c3cccs3)C2)cc1 (configuration not stated) | i
Cc1cc2nc3c(nc2cc1C)C1(C(=O)O)CCC3(C)C1(C)C (configuration not stated) | 0.1
Nc1nc(CN2CCOCC2)cs1 | i
O=C(NC1CCCC1)C(c1ccccc1)N(C(=O)c1ccno1)c1cccnc1 (configuration not stated) | i
CCN(CC)CCOC(=O)c1ccc(NC(=O)COc2cc(=O)n(CC)c3ccccc23)cc1 | 1.8
CCOC(=O)CN1C(=O)COc2ccc(C(C)(C)C)cc21 | 1.3
CCCCCOC(=O)c1ccc(OC(=O)c2cncc(Br)c2)cc1 | 0.5
COC(=O)c1c(NC(=O)Cc2cccs2)sc(C)c1C | 0.2
CCN(CC)CC(O)COCCC12CC3CC(CC(C3)C1)C2 (configuration not stated) | i

Reprinted at random: three entries already listed, in no set order.
SMILES | H5N1 CPE
O=C(Nc1ccc2nn(-c3ccccc3)nc2c1)c1ccc2c(c1)OCCO2 | 0.4
ON1C2CCCCC2N(O)C1c1ccccc1F (configuration not stated) | i
NC1=NS(=O)(=O)NC1c1cccc(Cl)c1 (configuration not stated) | i

Following part.
SMILES | H5N1 CPE
CSc1nc(O)c(Cc2ccccc2)c(=O)[nH]1 | i
COc1ccc(CC(=O)Nc2nc3ccc(F)cc3s2)cc1S(=O)(=O)N1CCOCC1 | 12
c1ccc(C2=NP(N3CCOCC3)(N3CCOCC3)=NC(N3CCOCC3)=N2)cc1 | 1.3
CCN(CC)c1nc2n(c(=S)n1)CCS2 | 0.7
COc1ccc(-c2csc3ncnc(NCCN4CCOCC4)c23)cc1 | 3.7
O=C(C(Sc1ccccc1)c1ccccc1)N1CCN(c2ccccc2F)CC1 (configuration not stated) | i
CCOC(=O)c1ccccc1NC1c2ccccc2C(=O)N1c1ccc(C)cn1 (configuration not stated) | i
CC(=O)OC1c2ccccc2C(=O)N1c1ccccc1C (configuration not stated) | 0.1
Cc1nc2ccc(S(=O)(=O)N(C)CC(=O)NCc3ccc4c(c3)OCO4)cc2s1 | i
C/C(N)=C(/C#N)C(=O)COC(=O)CCC1CCCC1 | 0.3
CCCCn1c(-c2ccccc2)nnc1-c1ccccc1 | i
CCOC(=O)Cc1csc(NC(=O)CSc2ncnc3c2cnn3-c2ccccc2Cl)n1 | i
COC(=O)CN1C(=O)C(O)(CC(=O)c2ccccc2)c2ccccc21 (configuration not stated) | i
Nc1ccc(OCc2ccccc2)cc1 | 0.4
CCOC(=O)c1c(C)[nH]c(C(=O)COC(=O)CCC(=O)c2ccc3c(c2)OCCO3)c1C | i
CCN(CC)CCOc1c(Br)ccc2c1sc1nc3n(c(=O)c12)CCC3 | i
CC1=C(C(=O)OCC2CCCO2)C(c2ccc(O)cc2)NC(=O)N1 (configuration not stated) | 0.1
N#CC1=C(N)C(C#N)(C#N)[C@H](c2c(F)cccc2F)[C@H]2CC3(CC=C12)OCCO3 | 2.3
CC1=C(C(=O)Nc2cccnc2)C(c2ccc(C(C)C)cc2)n2ncnc2N1 (configuration not stated) | i
Cc1cccc(C)c1NC(=O)C(c1ccc([N+](=O)[O-])cc1)N1CCCCC1 (configuration not stated) | i
CCN(CC)CCN=C(C)c1c(O)n(-c2ccccc2OC)c(=O)[nH]c1=O | i
C=CCOC(=O)C1=C(C)Nc2ncnn2C1c1cc(Br)ccc1F (configuration not stated) | 1.5
Cc1nc(N2CCN(c3ccccc3)CC2)nc2c1C(=O)CC(C)C2 (configuration not stated) | i
CCCCC(=O)Nc1ccc(C(=O)NCC(=O)OC)cc1 | 0.4
CC(=O)Nc1ccc(NC(=O)CN(c2ccccc2Cl)S(C)(=O)=O)cc1 | 2.5
COc1ccc2nc(NC(=S)N(C)C)sc2c1 | i
Cc1cc(S(=O)(=O)N2CCC(NC(=O)C34CC5CC(CC(C5)C3)C4)CC2)ccc1-n1cnnn1 | 0.5

An excerpt; the hit share may differ from the screen's.
